# Ecoli growth: E. coli growth inhibition, primary screen, OD600 | Escherichia coli growth, 23 h; stronger effect = lower value | OD600 absorbance (concentration not given with the values) | 330,000 tested, 0.21% active | AID 1053175, 2014;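 active = OD600 absorbance below the run mean of sample wells minus 3.6 SD, in any replicate, cut at about 0.56 in these data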;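 also: stock transfer was 300 nL into about 60 µL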
# AF4-AF9 inh: inhibitors of AF4 peptide binding to AF9, primary screen, biochemical, AlphaScreen, biotin-AF4 peptide, FLAG-AF9, single point; 350,000 tested, 0.47% active; inhibition, % at 10 µM; AID 651704, 2012;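 active = every replicate reaching a set inhibition limit, whatever the replicate mean, cut at about 25% in these data; inconclusive = mean inhibition reaches that limit but some replicates miss it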;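 also: 0% = plate neutral control median and 100% = total signal loss; the record names both 10 and 1 µM as test concentration; the first replicate is given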
# Target sequence (P42568 whole entry, looked up): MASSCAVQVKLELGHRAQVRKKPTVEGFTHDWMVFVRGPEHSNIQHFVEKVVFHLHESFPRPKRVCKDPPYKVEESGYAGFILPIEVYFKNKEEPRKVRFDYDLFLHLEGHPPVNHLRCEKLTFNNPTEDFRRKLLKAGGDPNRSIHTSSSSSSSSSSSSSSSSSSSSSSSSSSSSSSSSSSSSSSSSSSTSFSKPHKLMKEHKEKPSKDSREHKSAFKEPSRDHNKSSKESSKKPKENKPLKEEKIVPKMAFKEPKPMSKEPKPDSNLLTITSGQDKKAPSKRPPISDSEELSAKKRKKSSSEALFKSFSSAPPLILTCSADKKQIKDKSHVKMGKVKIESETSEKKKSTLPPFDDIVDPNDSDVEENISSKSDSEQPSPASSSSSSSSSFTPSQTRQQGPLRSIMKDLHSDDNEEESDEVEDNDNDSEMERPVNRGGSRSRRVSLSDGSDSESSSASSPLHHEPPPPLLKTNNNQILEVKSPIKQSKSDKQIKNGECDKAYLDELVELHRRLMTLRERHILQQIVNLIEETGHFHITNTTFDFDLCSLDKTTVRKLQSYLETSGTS
# Ecoli rRNA inh: reduced GFP signal of wild-type E. coli, primary screen, bacterial rRNA inhibitor project, GFP/RFP fluorescence, OD600, single point; E. coli WT GFP vs humanized-ribosome RFP mutants, 24 h; stronger effect = lower value; DMSO median 0, no signal -100; GFP signal change (wild-type ribosome), % (concentration not given with the values); 350,000 tested, 1.6% active;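 active = significant combined selectivity score with lowered wild-type GFP, culture density cut under 30%, mutant RFP and density less affected; inactive = any of these conditions unmet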; also: one replicate is shown; some compounds called inactive have numbers as strong as hits
# HNF4A DNA FP: change in binding of human HNF4A to DNA, primary screen, biochemical, fluorescence polarization, FITC-DNA. Hepatocyte nuclear factor 4-alpha (Homo sapiens), P41235. 1 h. activity change, % at 10 µM. 360,000 tested, 0.3% active; in the data active = activity change above about 30%, passing the limit was not always enough;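 also: controls were the assay level and a saturating level of protein; the project sought stronger binding though the title names inhibitors; some compounds called inactive have numbers as strong as hits; positive values seem to mean higher polarization but the record does not say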
# Target sequence (P41235 whole entry, looked up): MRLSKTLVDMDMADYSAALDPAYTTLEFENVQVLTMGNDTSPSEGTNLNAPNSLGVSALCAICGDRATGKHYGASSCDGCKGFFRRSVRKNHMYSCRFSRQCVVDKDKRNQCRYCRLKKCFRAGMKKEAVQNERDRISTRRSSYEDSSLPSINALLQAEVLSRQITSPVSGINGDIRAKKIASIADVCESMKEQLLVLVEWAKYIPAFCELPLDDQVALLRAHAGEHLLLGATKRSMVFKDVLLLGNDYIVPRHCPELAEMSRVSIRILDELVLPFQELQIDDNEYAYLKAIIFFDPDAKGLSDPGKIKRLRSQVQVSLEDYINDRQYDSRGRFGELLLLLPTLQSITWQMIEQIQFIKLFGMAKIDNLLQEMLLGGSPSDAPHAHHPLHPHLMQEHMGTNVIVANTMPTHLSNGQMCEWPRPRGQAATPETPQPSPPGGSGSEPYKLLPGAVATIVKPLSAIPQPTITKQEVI
# FGF22 binding: binders of human FGF22 protein, primary screen, FGF22 synaptogenesis inhibitor project, biophysical, thermal shift, single point. Fibroblast growth factor 22 (Homo sapiens), Q9HCT0. recombinant FGF22 thermal shift, SYPRO orange fluorescence; percent of sucrose octasulfate shift, DMSO zero. calls only at 9.99 µM. 340,000 tested, 1.5% active;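 active = melting point raised past a set limit in the mean and every replicate; inconclusive = no clear call; three in four hits are not shown here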
# ALR inh: inhibitors of human ALR sulfhydryl oxidase, primary screen, biochemical, H2O2 detection, HRP-luminol luminescence, single point. FAD-linked sulfhydryl oxidase ALR (Homo sapiens), P55789. purified ALR, DTT oxidation. inhibition, % (no concentration beside the values). 290,000 tested, 3.8% active. AID 485317, 2010;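 active = mean and each replicate at 75% or more; inconclusive = only one of the two met; inactive = neither met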;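 also: stock transfer was 7.5 nL into about 7.5 µL; 0% = neutral wells and 100% = wells with inactivated enzyme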
# Vif TR-FRET: inhibitors of Vif binding to APOBEC3G peptide, primary screen, biochemical, TR-FRET, GST-Vif 1-94, biotin-A3G peptide, dose response retest (AID 1117319); Virion infectivity factor (Human immunodeficiency virus type 1 group M subtype B (isolate …; inhibition, %, or IC50 in µM where a hit was titrated; 260,000 tested, 0.57% active; TR-FRET GST-Vif / biotin-A3G peptide binding; higher % means a stronger effect; test concentration not given here; strong numbers were not always called active;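 active = above the screen mean plus three standard deviations and confirmed in dose response; inconclusive = results disagree or hit not tested in dose response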;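 also: Vif residues 1-94 fused to GST binding biotinylated APOBEC3G peptide 110-148; 0% = full assay without inhibitor and 100% = GST in place of GST-Vif; retest series ran down from 100 µM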
# Ecoli rRNA inh OD600: also measured in Ecoli rRNA inh; calls as there; OD600 change, %; measured here: OD600 growth;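 optical density of the mix in the first replicate; 0 = DMSO median and -100 = no signal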
# Ecoli rRNA inh RFP: also measured in Ecoli rRNA inh; calls as there; RFP signal change, %; measured here: RFP humanized mutant strains;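 first replicate; 0 = DMSO median and -100 = no signal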
# Active calls of the source: *; i = inactive; ? = inconclusive; / = not tested or not shown; & = joins results of further samples. Only part of the results is shown; the hit share may differ from the screen's.
# Every second line gives: Vif TR-FRET	Ecoli rRNA inh RFP	ALR inh	Ecoli growth	FGF22 binding	Ecoli rRNA inh	HNF4A DNA FP	Ecoli rRNA inh OD600	AF4-AF9 inh
CC(=O)Nc1ccc2c(c1)CCc1ccccc1-2
    /	-4.0	-28	0.61	i	-7	2.3	-5	-4.1
Nc1nc(-c2ccco2)nn1S(=O)(=O)c1ccccc1
    11%	-1.9	-38	0.75	i	5	-0.3	3	0.5
CCNC(=O)[C@H]1[C@H](CO)[C@H]2Cn3c(ccc(-c4ccccc4)c3=O)[C@H]2N1Cc1ccccn1
    /	1.3	/	/	i	4	/	3	0.9
CC(=O)N1CCCCN2[C@H](C1)[C@@H](c1ccc(C#Cc3ccccc3F)cc1)[C@@H]2CO
    /	-11	/	/	i	-56	/	-73	-9.3
CCOC(=O)C1CCCN(C(=O)c2ccc(C(=O)c3ccccc3)cc2)C1 (stereo not drawn)
    4%	0.8	-6	0.69	i	-20	3.2	-18	0.4
CC1CCCC(NC(=O)CNC(=O)c2cccs2)C1C (stereo not drawn)
    2%	0.9	1	0.65	i	4	-0.4	9	-17
O=C(CN1CCN(c2ccccn2)CC1)Nc1ccc(OCc2ccccc2)cc1
    20%	/	26	0.7	/	/	-0.8	/	/
CCOc1ccccc1N(C)C(=O)CCS(=O)(=O)c1ccc2c(c1)NC(=O)C(C)S2 (stereo not drawn)
    8%	1.9	-5	0.7	i	-7	0.1	-2	0.3
CC1(C(=O)NS(=O)(=O)c2ccccc2Cl)CCN1C(=O)C1CC1 (stereo not drawn)
    /	-2.1	/	/	i	10	-0.3	5	-3.0
CCOc1ccc(NC(=O)CCN2CCCCC2)cc1
    1%	/	-6	0.73	/	/	-0.1	/	/
Cc1cc(NC(=O)CN2C(=O)c3ccccc3S2(=O)=O)no1
    -5%	2.5	-14	0.72	i	12	0.5	3	-3.9
COCC(C)NC(=S)N1CCN(c2ccccc2Cl)CC1 (stereo not drawn)
    -12%	-2.6	-13	0.7	i	1	1.7	-7	0.6
C[C@H](CO)N1C[C@H](C)[C@H](CN(C)S(=O)(=O)c2ccc(F)cc2)Oc2ccc(NC(=O)CCC(F)(F)F)cc2CC1=O
    /	-1.5	/	/	i	2	/	1	-2.7
Cc1ccc2[nH]cc(C(=O)NCc3cccs3)c(=O)c2c1
    -35%	0.4*	45	0.68	i	-24*	-0.4	-7.4*	-2.6
CCN(C(=O)COC(=O)CN(C)S(=O)(=O)c1ccc(NC(C)=O)cc1)C1CCS(=O)(=O)C1 (stereo not drawn)
    /	-1.9	-6	0.72	i	8	-1.0	10	-2.8
Cc1oncc1-c1cn2ccccc2n1
    -1%	/	2	0.69	/	/	0.0	/	/
COCC(=O)N1CC[C@@H]2[C@@H](CO)N(C)c3ccc(-c4ccccc4)cc3[C@@H]21
    /	-3.5	/	/	i	0	/	-3	4.5
NS(=O)(=O)c1ccc(CCNC(=O)c2cc(=O)[nH]c3ccccc23)cc1
    1%	-1.0	-1	0.69	i	22	-7.0	-1	0.9
Cn1c(N)c(C(=O)CNC2CCCCC2)c(=O)n(C)c1=O
    /	/	6	0.67	/	/	1.1	/	/
CCC(=O)N[C@@H]1CC[C@@H](CC(=O)OC)O[C@H]1CO
    /	-1.9	/	/	i	3	/	7	0.9
CC1=C(C(=O)OCC(C)C)C(c2ccc(Br)s2)NC(=O)N1 (stereo not drawn)
    -6%	-2.7	0	0.72	i	-17	-7.4	-25	0.6
Cc1c(C)c2ccc(OC(C)C(=O)N3CC[C@@]4(O)CCCC[C@H]4C3)c(C)c2oc1=O (stereo partly drawn)
    /	/	/	0.69	i	/	-3.6	/	1.7
CN1CCN(C(=O)C2=C[C@H](c3coc4ccccc4c3=O)C[C@H](OCc3ccc(CO)cc3)O2)CC1
    -9%	-11	/	/	i	-14	-0.6	-9	1.0
CCCCN1CC(Br)C(=O)NC1=O (stereo not drawn)
    -5%	3.8	/	0.66	i	3	0.8	4	-1.0
O=C1C(NS(=O)(=O)c2cccs2)=C(N2CCN(c3ccccc3)CC2)C(=O)c2ccccc21
    15%	/	-6	/	/	/	-1.9	/	/
ON1C(c2ccccc2C(F)(F)F)N(O)[C@H]2CCCC[C@H]21 (stereo partly drawn)
    -7%	/	-3	0.69	/	/	0.7	/	/
OCCN1CCN(c2cc(C(F)(F)F)nc3ccccc23)CC1
    0%	/	-19	0.7	i	/	2.4	/	-2.0
COc1ccccc1N(CN1CCCC1=O)C(=O)COc1ccccc1
    -6%	/	-9	0.72	/	/	1.1	/	/
CCCN1C[C@@H](C)[C@@H](OC)CN(C)C(=O)c2ccc(NC(=O)c3cccc(F)c3)cc2OC[C@@H]1C
    /	-1.3	/	/	i	1	/	0	?
COc1ccccc1NC(=O)N1CC(=O)N2[C@H](CO)[C@@H](c3ccc(C#CC(C)C)cc3)[C@H]2C1
    /	0.1	/	/	i	-2	/	11	-0.5
Cc1ccc(CSC2=NCCN2C(=O)c2ccc(S(=O)(=O)N(C)C)cc2)cc1
    /	-0.9	-7	0.71	i	4	0.1	5	-1.4
CN1CC(=O)N(CC(=O)NC2CCCCC2)C1=O
    -11%	/	-1	0.71	i	/	1.4	/	0.6
CCOc1cccc2c1OC1(CCCCC1)N1N=C(c3cccnc3)CC21 (stereo not drawn)
    17%	/	/	0.72	i	/	7.5	/	7.2
COC(=O)C1=C(C(=O)OC)[C@@H]2N(Cc3ccccc3)c3ccccc3[C@@]23C[C@@H](C(=O)OC)N(C(=O)c2ccc(Br)cc2)C3=N1
    /	/	-1	0.83	/	/	0.3	/	/
COC(=O)C1C(=O)C2=C(CC1C)NC(=O)CC2c1ccccc1 (stereo not drawn)
    0%	/	-4	0.78	/	/	-1.8	/	/
COCC(=O)Oc1cc(-c2ccc(C)cc2C)c(OC(=O)COC)c(-c2ccc(C)cc2C)c1
    2%	-1.2	/	/	i	4	-3.6	7	-0.3
O=C1/C(=C\c2ccco2)SC(=S)N1c1ccc(O)cc1
    ?	3.2	?	0.67	i	-3	1.7	-8	15
COCc1cc(Sc2c(Cl)cccc2Cl)nc(-c2ccccc2)n1
    24%	/	3	0.79	/	/	2.1	/	/
CC(C)c1ccc(CC(=O)N2CCC2(C)C(=O)NCc2cccc3ccccc23)cc1 (stereo not drawn)
    /	-0.5	/	/	i	-16	-1.8	-31	-1.5
O=c1cc(CN2CCN(c3ccccc3F)CC2)c2cc3c(cc2o1)CCCC3
    1%	/	0	0.72	/	/	4.2	/	/

# Looked up by structure from the list above:
# Every second line gives: Vif TR-FRET	Ecoli rRNA inh RFP	ALR inh	Ecoli growth	FGF22 binding	Ecoli rRNA inh	HNF4A DNA FP	Ecoli rRNA inh OD600	AF4-AF9 inh
O=C(CN1CCN(c2ccccn2)CC1)Nc1ccc(OCc2ccccc2)cc1
    20%	/	26	0.7	/	/	-0.8	/	/
O=c1cc(CN2CCN(c3ccccc3F)CC2)c2cc3c(cc2o1)CCCC3
    1%	/	0	0.72	/	/	4.2	/	/

# Next records
# Every second line gives: Vif TR-FRET	Ecoli rRNA inh RFP	ALR inh	Ecoli growth	FGF22 binding	Ecoli rRNA inh	HNF4A DNA FP	Ecoli rRNA inh OD600	AF4-AF9 inh
CCCNS(=O)(=O)c1ccc(CCC(=O)NCc2ccco2)cc1
    22%	/	7	0.67	/	/	0.1	/	/
COc1ccc(OC)c(-n2c(SCC(C)=O)nnc2-c2cccc(S(=O)(=O)N(C)C)c2)c1
    0%	/	30	0.66	/	/	5.9	/	/
O=C(c1ccncc1)N1C[C@@H]2[C@H](c3ccccc31)[C@@H](CO)N2Cc1ccccc1F
    /	-0.7	/	/	i	-2	/	4	0.3
CN1C(=O)c2cc(NC(=O)C3CCCC3)ccc2OC[C@@H]2O[C@@H](CC(=O)O)CC[C@@H]21
    /	-1.4	/	/	i	2	/	12	-1.7
O=C(Nc1ccc(F)c(Cl)c1)c1ccc2nc([C@@H]3O[C@H](CO)[C@H](O)[C@H](O)[C@H]3O)[nH]c2c1
    /	-0.4	/	/	i	0	-0.3	3	2.0
O=C(c1ccc(-c2cc(O)c3ncccc3c2)cc1)N1CCNCC1
    /	-20	-11	0.58	i	-13	8.5	6	92*
CC(C)CNS(=O)(=O)c1ccccc1C(=O)N1CCCCC1
    -3%	/	-13	0.69	/	/	4.2	/	/
CCCC#Cc1cnc2c(c1)C(=O)N([C@H](C)CO)C[C@@H](C)[C@@H](CN(C)C(=O)Nc1ccc(OC)cc1)O2
    /	0.3	/	/	i	3	/	1	0.0
Cc1ccc(-n2ncc3c(=O)n(CC(=O)OCc4ccccc4)cnc32)cc1
    -1%	/	-10	0.73	/	/	0.6	/	/
CC(=O)N1c2ccc(S(=O)(=O)N(C)CC(=O)NC3CCCC3)cc2CC1C (stereo not drawn)
    0%	-0.3	-6	0.61	i	6	-3.2	14	0.8
C[C@H](CO)N1C[C@H](C)[C@H](CN(C)Cc2ccc(C(=O)O)cc2)OCCCC[C@H](C)Oc2ccc(NC(=O)Nc3ccc4c(c3)OCO4)cc2C1=O
    /	-1.7	/	/	i	-1	/	9	0.8
CCNC(=O)[C@H]1[C@H](CO)[C@H]2Cn3c(ccc(-c4cccc(F)c4)c3=O)[C@@H]1N2C(=O)c1cnccn1
    /	-0.6	/	/	i	1	/	10	-24
O=C(COC(=O)C1CC1)NCc1ccccc1
    3%	-1.9	/	0.69	i	8	3.4	9	1.8
Cc1cc(-c2ccccc2)n2nc(N)nc2n1
    17%	-1.1	-2	0.69	i	8	-2.6	4	2.8
O=C(NC1CC1)C1CCN(C(=O)c2ccc(Cl)cc2Cl)CC1
    /	-1.5	/	0.7	/	2	-0.9	8	-1.9
O=C(c1ccccc1)N1CC[C@@H]2[C@@H](CO)Nc3ccc(C#Cc4ccccc4F)cc3[C@@H]21
    /	10	/	/	i	-1	/	14	-1.6
CCCCNC(=O)C[C@H]1C[C@@]2(C(=O)OC)C(=C[C@H](C3CCCC3)O[C@@H]2C)N(Cc2ccccc2)C1=O
    /	3.0	/	/	i	-3	/	-21	-1.5
O=C(Nc1ccccc1N1CCCCC1)c1ccc(-c2cc(Cl)ccc2Cl)o1
    /	3.5	-7	0.69	i	14	-1.1	4	?
CC(C)C[C@H](NC(=O)c1nc[nH]c1C(=O)NCc1ccccc1)C(=O)OCc1ccccc1
    -5%	12	-11	0.84	i	1	-1.8	-1	-27
Cc1ccc(S(=O)(=O)Oc2ccc(/C=N/NC(=O)c3nn(C)cc3[N+](=O)[O-])cc2)cc1
    -1%	-1.5	-39	/	i	-8	-0.1	-1	7.7
Oc1c(C(c2ccccc2)N2CCc3ccccc3C2)sc2ncnn12 (stereo not drawn)
    9%	-3.6	43	0.73	i	3	-5.4	-4	-5.4
COc1cccc(N2CCN(Cc3ccsc3)CC2)c1
    ?	/	89*	0.73	/	/	1.9	/	/
CCCC(=O)n1nc(NCc2ccc(OC)cc2)nc1NCc1ccc(OC)cc1
    /	-6.6	-2	0.65	i	-12	0.5	-24	-5.9
COc1cccc(NC(=O)C2CCCN(S(=O)(=O)c3cccc4cccnc34)C2)c1 (stereo not drawn)
    22%&-4%	1.6	-4	0.75	i	2	2.7	-6	-2.7

# Screening results: PubChem BioAssay, several laboratories
